Env fusion inh: inhibitors of HIV-1 Env-driven cell-cell fusion, primary screen, HeLa-JRFL effector, CEM21 target cells, luciferase | 360,000 compounds, 1.1% hits | inhibition, % at 12.3 µM | AID 651610, 2012;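 active = mean replicate inhibition score of at least 50 and every replicate individually at or above 50; inconclusive = only one of the two criteria met; inactive = mean below 50 and not all replicates reaching 50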;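 also: 0% = plate neutral controls and 100% = maraviroc near 300 nM; one replicate is shown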
UUG fidelity: modulators of yeast start codon fidelity, primary screen, whole organism, S. cerevisiae, single point, plate reader; S. cerevisiae UUG-firefly luciferase reporter, luminescence/redox ratio; AID 602363, 2012; 350,000 compounds, 0.13% hits; activity score, % at 18.7 µM;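 active = replicate mean at a twofold rise or more, about +100% in these data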;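 also: firefly luciferase made from a UUG start codon reports start codon fidelity; reporter light over untreated wells divided by growth signal over untreated wells; some hits fall short of that in this replicate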
Numbers without * were called inactive; [ ] = dose if it differs, or a comment. Only part of the results is shown, so the mix of outcomes need not match the whole.

Screening Cc1ccc(-c2cnc3c(c2)C(=O)N([C@H](C)CO)C[C@H](C)[C@H](CN(C)C(=O)c2ccncc2)O3)cc1 returned Env fusion inh 12.1[16.7 µM] and UUG fidelity -10.9.
`Cc1noc(C)c1S(=O)(=O)Nc1ccc2c(c1)C(=O)N([C@@H](C)CO)C[C@H](C)[C@@H](CN(C)C(=O)C1CCCCC1)OCCCC[C@H](C)O2` gave Env fusion inh -11.0[16.7 µM] and UUG fidelity 6.9.
For COCC#Cc1cnc2c(c1)C(=O)N([C@H](C)CO)C[C@@H](C)[C@H](CN(C)C(=O)Nc1ccccc1F)O2 the results were Env fusion inh -10.2[16.7 µM] and UUG fidelity 6.7.
`Cc1ccc(S(=O)(=O)N(C)C[C@@H]2OCCCC[C@H](C)Oc3ccc(NC(=O)CCC(F)(F)F)cc3C(=O)N([C@@H](C)CO)C[C@H]2C)cc1` gave Env fusion inh 0.3[16.7 µM] and UUG fidelity 9.7.
For C[C@H]1CN([C@@H](C)CO)C(=O)Cc2cc(NS(=O)(=O)c3ccc(Cl)cc3)ccc2O[C@@H]1CN(C)S(=O)(=O)c1cccs1 the results were Env fusion inh -14.0[16.7 µM] and UUG fidelity -4.8.
`C=CCNC(=O)[C@@H]1[C@H]2C(=O)O[C@H](c3ccccc3)[C@H](c3ccccc3)N2[C@H](c2ccc(OCCO)cc2)[C@@]12C(=O)Nc1ccc(C#CCNC(N)=O)cc12` gave Env fusion inh 7.2[16.7 µM] and UUG fidelity -2.1.
Screening C[C@H]1CCCCO[C@H](CN(C)CC2CCCCC2)[C@@H](C)CN([C@@H](C)CO)C(=O)c2cc(NS(=O)(=O)c3ccc(F)cc3)ccc2O1 returned Env fusion inh 13.1[16.7 µM] and UUG fidelity 10.2.
Screening COc1ccc(S(=O)(=O)N(C)C[C@H]2OCCCC[C@@H](C)Oc3ccc(NC(=O)Nc4ccc5c(c4)OCO5)cc3C(=O)N([C@@H](C)CO)C[C@H]2C)cc1 returned Env fusion inh 0.7[16.7 µM] and UUG fidelity -7.6.
Screening C[C@H]1CN([C@@H](C)CO)C(=O)c2cccc(NC(=O)c3ccc(-c4nccs4)cc3)c2O[C@H]1CN(C)S(=O)(=O)c1cn(C)cn1 returned Env fusion inh 20.7[16.7 µM] and UUG fidelity 18.7.
C[C@@H]1CCCCO[C@@H](CN(C)C(=O)Nc2ccc3c(c2)OCO3)[C@@H](C)CN([C@H](C)CO)C(=O)c2cc(NC(=O)C3CCCCC3)ccc2O1 was read as Env fusion inh -38.3[16.7 µM] and UUG fidelity -5.0.
COc1ccc([Si](C)(C)[C@@H]2[C@@H](CCO)O[C@]3(C(=O)N(Cc4ccccc4)c4ccc(N5CCCCC5=O)cc43)[C@H]2C)cc1 was read as Env fusion inh 10.6[16.7 µM] and UUG fidelity 10.1.
`CO[C@H]1CN(C)C(=O)c2cc(NC(=O)Nc3cc(F)ccc3F)ccc2OC[C@H](C)N(C)C[C@@H]1C` gave Env fusion inh 8.2[16.7 µM] and UUG fidelity -1.4.
For O=C(Cc1ccncc1)Nc1ccc2c(c1)[C@@H]1C[C@H](CC(=O)NC3CCCCC3)O[C@H](CO)[C@@H]1O2 the results were Env fusion inh inconclusive and UUG fidelity -10.6.
Screening CCC(=O)Nc1ccc2c(c1)C(=O)N(C)C[C@H](OC)[C@H](C)CN(Cc1ccccn1)[C@@H](C)CO2 returned Env fusion inh -7.1[16.7 µM] and UUG fidelity -20.3.
Screening C[C@@H]1CN([C@@H](C)CO)C(=O)Cc2cc(NC(=O)Nc3ccc(C(F)(F)F)cc3)ccc2O[C@H]1CN(C)Cc1ccc(Cl)c(Cl)c1 returned Env fusion inh 25.5[16.7 µM] and UUG fidelity -12.6.
Screening O=C(Cc1ccncc1)NCC[C@H]1CC[C@@H](NC(=O)Nc2cccc(F)c2)[C@@H](CO)O1 returned Env fusion inh -9.1[16.7 µM] and UUG fidelity -1.5.
For C[C@@H]1CCCCO[C@H](CN(C)C(=O)Cc2ccccc2)[C@H](C)CN([C@@H](C)CO)C(=O)c2cc(NS(=O)(=O)c3ccccc3)ccc2O1 the results were Env fusion inh -18.2[16.7 µM] and UUG fidelity 13.9.
`C[C@H](CO)N1C[C@H](C)[C@@H](CN(C)Cc2ccc(Cl)c(Cl)c2)OCCCC[C@H](C)Oc2ccc(NC(=O)Cc3ccccc3)cc2C1=O` gave Env fusion inh -8.7[16.7 µM] and UUG fidelity -11.8.
Screening Cc1ccc(S(=O)(=O)N(C)C[C@@H]2OCCCC[C@@H](C)Oc3ccc(NC(=O)Nc4ccc(F)cc4)cc3C(=O)N([C@@H](C)CO)C[C@@H]2C)cc1 returned Env fusion inh 0.0[16.7 µM] and UUG fidelity 5.6.
Screening C[C@@H]1CCCCO[C@@H](CN(C)C(=O)Nc2ccc(F)cc2)[C@H](C)CN([C@H](C)CO)C(=O)c2cc(NC(=O)Nc3ccc(F)cc3)ccc2O1 returned Env fusion inh 0.5[16.7 µM] and UUG fidelity 2.0.

Looked up by compound from the list above, 4 records:
`CO[C@H]1CN(C)C(=O)c2cc(NC(=O)Nc3cc(F)ccc3F)ccc2OC[C@H](C)N(C)C[C@@H]1C` gave Env fusion inh 8.2[16.7 µM] and UUG fidelity -1.4.
Screening C[C@H]1CN([C@@H](C)CO)C(=O)c2cccc(NC(=O)c3ccc(-c4nccs4)cc3)c2O[C@H]1CN(C)S(=O)(=O)c1cn(C)cn1 returned Env fusion inh 20.7[16.7 µM] and UUG fidelity 18.7.
`C[C@H](CO)N1C[C@H](C)[C@@H](CN(C)Cc2ccc(Cl)c(Cl)c2)OCCCC[C@H](C)Oc2ccc(NC(=O)Cc3ccccc3)cc2C1=O` gave Env fusion inh -8.7[16.7 µM] and UUG fidelity -11.8.
Screening Cc1ccc(S(=O)(=O)N(C)C[C@@H]2OCCCC[C@@H](C)Oc3ccc(NC(=O)Nc4ccc(F)cc4)cc3C(=O)N([C@@H](C)CO)C[C@@H]2C)cc1 returned Env fusion inh 0.0[16.7 µM] and UUG fidelity 5.6.

(continued)
COCC(=O)N(C)C[C@@H]1Oc2cc(-c3cccc(F)c3)ccc2S(=O)(=O)N([C@H](C)CO)C[C@@H]1C was read as Env fusion inh 35.0[16.7 µM] and UUG fidelity 18.2.
O=C(CN1CCOCC1)NCC[C@H]1CC[C@H](NC(=O)Cc2ccccn2)[C@H](CO)O1 was read as Env fusion inh -16.0[16.7 µM] and UUG fidelity 6.1.
CO[C@H]1CN(C)C(=O)c2ccc(NC(=O)C3CC3)cc2OC[C@@H](C)N(C(=O)C2CCCCC2)C[C@H]1C was read as Env fusion inh -7.7[16.7 µM] and UUG fidelity 2.2.
For COc1cccc(NC(=O)N(C)C[C@@H]2Oc3ncc(/C=C/c4ccccc4)cc3C(=O)N([C@H](C)CO)C[C@@H]2C)c1 the results were Env fusion inh 10.1[16.7 µM] and UUG fidelity -3.7.
Screening CN1C(=O)c2cc(NC(=O)c3cccs3)ccc2OC[C@@H]2O[C@@H](CC(=O)NCC3CC3)CC[C@@H]21 returned Env fusion inh 4.9[16.7 µM] and UUG fidelity 10.4.
For COc1ccc(S(=O)(=O)Nc2ccc3c(c2)C(=O)N([C@H](C)CO)C[C@H](C)[C@@H](CN(C)CC2CC2)OCCCC[C@H](C)O3)cc1 the results were Env fusion inh -8.0[16.7 µM] and UUG fidelity 12.6.
`C[C@H]1CN([C@@H](C)CO)C(=O)Cc2cc(NC(=O)CCCCCC(=O)Nc3ccccc3N)ccc2O[C@@H]1CN(C)Cc1ccc(Cl)c(Cl)c1` gave Env fusion inh -5.6[16.7 µM] and UUG fidelity 2.7.
`COc1ccc(NC(=O)Nc2ccc3c(c2)[C@@H]2C[C@H](CC(=O)N4CCc5ccccc5C4)O[C@H](CO)[C@@H]2O3)cc1` gave Env fusion inh 13.5[16.7 µM] and UUG fidelity -13.6.
For C/C=C/c1cnc2c(c1)C(=O)N([C@H](C)CO)C[C@H](C)[C@@H](CN(C)C(=O)c1cccnc1)O2 the results were Env fusion inh -8.3[16.7 µM] and UUG fidelity -0.1.
`C[C@@H]1CN([C@@H](C)CO)S(=O)(=O)c2ccc(C3=CCCC3)cc2O[C@@H]1CN(C)C(=O)C1CCCCC1` gave Env fusion inh 12.5[16.7 µM] and UUG fidelity -22.3.
COc1ccccc1C#Cc1cnc2c(c1)C(=O)N([C@@H](C)CO)C[C@H](C)[C@@H](CN(C)C(=O)CN(C)C)O2 was read as Env fusion inh 2.0[16.7 µM] and UUG fidelity 14.6.
Screening C[C@@H]1CCCCO[C@@H](CN(C)C(=O)C2CCCCC2)[C@H](C)CN([C@@H](C)CO)C(=O)c2cc(NC(=O)C3CCCCC3)ccc2O1 returned Env fusion inh 8.3[16.7 µM] and UUG fidelity 2.5.
`C[C@H](CO)N1C[C@H](C)[C@@H](CN(C)C(=O)c2ccccc2)OCCCC[C@H](C)Oc2ccc(NS(=O)(=O)c3ccc(Cl)cc3)cc2C1=O` gave Env fusion inh -111.9[16.7 µM] and UUG fidelity 8.1.
Screening O=C(C[C@H]1CC[C@H]2[C@@H](COC[C@H](O)CN2CC2CCCCC2)O1)NCc1ccc(F)cc1 returned Env fusion inh 16.7[16.7 µM] and UUG fidelity -0.4.
For C[C@@H]1CCCCO[C@H](CN(C)C(=O)Nc2ccc3c(c2)OCO3)[C@H](C)CN([C@@H](C)CO)C(=O)c2cc(N(C)C)ccc2O1 the results were Env fusion inh 16.5[16.7 µM] and UUG fidelity 16.4.
Screening CCC(=O)N1C[C@@H](C)[C@H](OC)CN(C)C(=O)c2ccc(NS(C)(=O)=O)cc2OC[C@H]1C returned Env fusion inh -0.7[16.7 µM] and UUG fidelity 11.2.
Screening C[C@H](CO)N1C[C@H](C)[C@H](CN(C)Cc2ccccc2)Oc2ccc(NS(=O)(=O)c3ccc(Cl)cc3)cc2CC1=O returned Env fusion inh -14.1[16.7 µM] and UUG fidelity 3.9.
Screening C[C@H]1CCCCO[C@@H](CN(C)CC2CC2)[C@@H](C)CN([C@@H](C)CO)C(=O)c2cc(NC(=O)Nc3ccc(F)cc3)ccc2O1 returned Env fusion inh 8.5[16.7 µM] and UUG fidelity 5.2.
For COc1ccc(S(=O)(=O)N(C)C[C@@H]2Oc3cc(C#CC4CCCC4)ccc3S(=O)(=O)N([C@H](C)CO)C[C@H]2C)cc1 the results were Env fusion inh 35.4[16.7 µM] and UUG fidelity -4.6.
Screening C[C@H](CO)N1C[C@H](C)[C@@H](CN(C)C(=O)Nc2ccccc2)OCc2cn(nn2)CCCC1=O returned Env fusion inh 3.8 and UUG fidelity 0.8.
C[C@H](CO)N1C[C@H](C)[C@@H](CN(C)C(=O)Nc2cccc3ccccc23)Oc2ccc(NS(=O)(=O)c3ccc(Cl)cc3)cc2CC1=O was read as Env fusion inh -6.1[16.7 µM] and UUG fidelity 5.8.
Cc1ccc(S(=O)(=O)N2C[C@H](O)COC[C@H]3O[C@@H](CC(=O)NCc4ccc5c(c4)OCO5)CC[C@@H]32)cc1 was read as Env fusion inh 19.9[16.7 µM] and UUG fidelity 5.3.
O=C(C[C@H]1CC[C@@H](NS(=O)(=O)c2ccc(F)cc2)[C@@H](CO)O1)NC1CCCCC1 was read as Env fusion inh -3.3[16.7 µM] and UUG fidelity -5.7.
CC(C)NC(=O)N(C)C[C@@H]1Oc2c(NC(=O)C3CCOCC3)cccc2C(=O)N([C@H](C)CO)C[C@H]1C was read as Env fusion inh 7.1[16.7 µM] and UUG fidelity -7.6.
For CS(=O)(=O)Nc1ccc2c(c1)[C@H]1C[C@H](CC(=O)NCc3ccncc3)O[C@@H](CO)[C@H]1O2 the results were Env fusion inh 1.1[16.7 µM] and UUG fidelity -8.0.
C[C@H]1CN([C@@H](C)CO)C(=O)c2cc(NS(=O)(=O)c3cn(C)cn3)ccc2O[C@@H]1CN(C)S(=O)(=O)c1ccccc1 was read as Env fusion inh 3.2[16.7 µM] and UUG fidelity -3.1.
O=C(NCC[C@@H]1CC[C@H](NC(=O)C2CCC2)[C@H](CO)O1)c1cc(Cl)cc(Cl)c1 was read as Env fusion inh -4.6[16.7 µM] and UUG fidelity 1.8.
Screening COCC(=O)Nc1ccc2c(c1)[C@H]1C[C@H](CC(=O)N3CCN(C)CC3)O[C@H](CO)[C@H]1O2 returned Env fusion inh -32.9[16.7 µM] and UUG fidelity -14.2.
Screening C[C@@H]1CN([C@@H](C)CO)C(=O)c2cc(-c3ccccc3)cnc2O[C@H]1CN(C)C(=O)Nc1ccc2c(c1)OCO2 returned Env fusion inh 17.3[16.7 µM] and UUG fidelity 0.5.
`C[C@H]1CN([C@@H](C)CO)C(=O)c2cc(C#CC3CCCCC3)cnc2O[C@H]1CN(C)CC1CC1` gave Env fusion inh 17.5[16.7 µM] and UUG fidelity 9.5.
Screening CCCNC(=O)N1[C@H](C#N)[C@H](c2ccc(-c3ccc(C(=O)N(C)C)cc3)cc2)[C@@H]1CO returned Env fusion inh 68.1*[16.7 µM] and UUG fidelity 9.9.
Screening Cc1noc(C)c1NC(=O)Nc1ccc2c(c1)C(=O)N([C@@H](C)CO)C[C@H](C)[C@@H](CN(C)S(=O)(=O)c1c(C)noc1C)OCCCC[C@H](C)O2 returned Env fusion inh 14.4[16.7 µM] and UUG fidelity 18.8.
`CCC(=O)N(C)C[C@@H]1Oc2cc(C#Cc3ccccn3)ccc2S(=O)(=O)N([C@H](C)CO)C[C@H]1C` gave Env fusion inh -23.9[16.7 µM] and UUG fidelity -0.1.
Screening COCCOC(=O)N1C(=O)[C@@]2(c3ccccc31)[C@H](c1ccccc1OCCO)N1[C@H](c3ccccc3)[C@H](c3ccccc3)OC(=O)[C@H]1[C@@H]2C(=O)N1CCN(c2ncccn2)CC1 returned Env fusion inh -237.7[16.7 µM] and UUG fidelity -1.4.
Screening C[C@H](CO)N1C[C@H](C)[C@H](CN(C)C(=O)Nc2ccc(C(F)(F)F)cc2)Oc2ccc(NC(=O)Nc3ccc(C(F)(F)F)cc3)cc2CC1=O returned Env fusion inh 23.4[16.7 µM] and UUG fidelity -26.3.

Bioassay records from PubChem.
